# Screens: PubChem, ICCB-Longwood Screening Facility, Harvard Medical School
# Ba CapD inh: blocks the Bacillus anthracis CapD enzyme. purified CapD enzyme, fluorescence intensity read-out; hits give low values; some hits fall short of the stated cut. z-score (concentration not given with the values). hit rate 0.23% among 140,000. AID 492967;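 active = z-score under -4 in either of two replicates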;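 note: stock transfer was 100 nL into about 40 µL; score is relative to mean and spread of the plate; one replicate is shown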
# AID504770: growth inhibitors of E. coli YBA685 in a screen for V. cholerae RctB (chromosome II replication) inhibitors; E. coli YBA685 rctB-dependent plasmid, OD600 growth, 3 h; hits give low values; z-score (concentration not given with the values); hit rate 0.27% among 130,000;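 active = z-score under -2 on both plates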;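 note: wells of about 30 µL received 100 nL stock; score is relative to mean and SD of the test wells; the first replicate is given; strong numbers were not always called active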
# Numbers without * were called inactive; / = not tested or not shown.
# Every second line gives: Ba CapD inh	AID504770
Cc1cc(NC(=O)c2cc(-c3ccc(F)cc3)no2)nn1CC(=O)N1CCC(C)CC1
  0.15	1.8
CC(=O)Nc1cc2c(cc1[N+](=O)[O-])OCCO2
  -1.2	/
O=C(Cn1nnc2ccccc21)C1CC1
  0.13	-0.4
Cc1ccc(CNC(=O)CSc2nc3ccsc3c(=O)n2C2CC2)cc1
  0.04	0.8
Nc1nc(=Nc2ccccc2)n2c(n1)sc1ccccc12
  0.27	-0.3
COc1ccccc1-c1nn(CCC(=O)NC2CCCC2)c2nc(C)cc(C)c12
  0.16	-1.3
CCOC(=O)N1CCC(N(CCOC)C(=S)Nc2ccc(C)cc2C)CC1
  9.2	-0.65
O=C(Cc1ccccc1)Nn1cnc2ccccc21
  -0.46	-0.6
COc1cccc(NS(=O)(=O)c2cc(C(=O)N3CCN(C)CC3)ccc2NCCc2ccc(Cl)cc2)c1
  1.7	/
Cc1cc(C)nc(-n2nc(C)cc2NC(=O)CNC2CCCCC2)n1
  /	1.2
COc1cccc(C(=O)N/N=C/c2ccc(C(=O)O)cc2)c1
  -1.3	/
CNC(=S)NNc1ncccc1-n1cccc1
  -0.58	2.6
COC(=O)C1CN(C(=O)/C=C/c2ccccc2)c2ccccc2O1 (stereo not drawn)
  -1.1	0.65

# Full records, looked up by structure:
# COC(=O)C1CN(C(=O)/C=C/c2ccccc2)c2ccccc2O1 (stereo not drawn) is entered as Ba CapD inh = -1.1; AID504770 = 0.65
# COc1ccccc1-c1nn(CCC(=O)NC2CCCC2)c2nc(C)cc(C)c12 is entered as Ba CapD inh = 0.16; AID504770 = -1.3

# Entries above that contain a halogen:
# Every second line gives: Ba CapD inh	AID504770
Cc1cc(NC(=O)c2cc(-c3ccc(F)cc3)no2)nn1CC(=O)N1CCC(C)CC1
  0.15	1.8
COc1cccc(NS(=O)(=O)c2cc(C(=O)N3CCN(C)CC3)ccc2NCCc2ccc(Cl)cc2)c1
  1.7	/
